From PubChem BioAssay
StopGo reporter: FMDV 2A StopGo reporter, luciferase signal | human cells with a luciferase reporter of 2A StopGo recoding; control for the full effect not named in the record | Potency, µM (top dose mostly 57.9 µM), inactives show at the top dose signal change, negative = less light | 1.2% of 410,000 active | AID 1159524; active = well fitted falling curve with a large enough effect; inconclusive = small, poorly fitted or top-dose-only effect; inactive = no such curve, though single readings can be large or run the other way; tested in HEK293T cells; also: % is scaled to controls: 0 for no effect and ±100 for the full control effect; nearly all actives have a fitted effect of over 45% in size; luciferase light after 4 h
LASV entry inh: Lassa virus entry inhibition. Lassa virus pseudotype entry inhibition, cell reporter; control for the full effect not named in the record. Potency, µM (highest dose often 37.9 µM), for inactives: top-dose activity change, negative = inhibition, usual class: inhibitors. 1.2% of 300,000 active; active means well fitted inhibition curve with a large enough effect; inconclusive means small, poorly fitted or top-dose-only effect, or effect the other way; inactive means flat fitted curve, though single readings scatter; tested in HEK293 cells; also: % is scaled to controls: 0 for no effect and ±100 for the full control effect; nearly all actives have a fitted effect of over 50% in size; luciferase read-out
Cruzain noTriton: blocks cruzain activity in detergent-free assay. P25779. purified cruzain, Z-FR-AMC fluorescence, no detergent. Potency, µM, without a hit: max response, negative = inhibition, most hits filed as inhibitors. 2.3% of 200,000 active;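 also: plate controls were enzyme without inhibitor for no effect and buffer without enzyme for full effect; nearly all actives have a fitted effect of over 40% in size; top concentration of the series not given in the record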
Target sequence (P25779 123-467 limits assumed): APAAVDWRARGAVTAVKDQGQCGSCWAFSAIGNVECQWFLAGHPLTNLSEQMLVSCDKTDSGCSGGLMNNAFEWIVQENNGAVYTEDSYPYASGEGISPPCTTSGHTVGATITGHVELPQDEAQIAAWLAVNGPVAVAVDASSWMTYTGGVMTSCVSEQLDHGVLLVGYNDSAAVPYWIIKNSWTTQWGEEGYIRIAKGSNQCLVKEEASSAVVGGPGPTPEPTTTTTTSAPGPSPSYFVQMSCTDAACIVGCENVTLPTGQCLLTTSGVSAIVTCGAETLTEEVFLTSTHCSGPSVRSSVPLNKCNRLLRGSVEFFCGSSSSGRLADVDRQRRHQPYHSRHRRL
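Detergent-free condition (0.00005% Triton X-100) in acetate buffer pH 5.5 with DTT. 1.5 nM enzyme and compound were pre-mixed 15 min, then 2 uM Z-FR-AMC substrate added; reaction progress from fluorescence change between first and third reads (60 s).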
RE007 growth inh: less growth of the S. pombe RE007 Vpr strain | S. pombe RE007 Vpr strain, BacTiter-Glo ATP luminescence, 24 h; control for the full effect not named in the record | Potency, µM (top dose mostly 92.2 µM), without a hit: at the top dose activity change, negative = less growth | 0.21% of 360,000 active; active = well fitted falling curve with a large enough effect; inconclusive = small, poorly fitted or top-dose-only effect; inactive = no such curve, though single readings can be large or run the other way;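 also: % is scaled to controls: 0 for no effect and ±100 for the full control effect; nearly all actives have a fitted effect of over 50% in size; the assay follows cell death caused by Vpr and the record does not say whether a fall means rescue or toxicity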
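Fission yeast strain RE007, carrying one chromosomally integrated HIV-1 vpr copy, was seeded at OD 0.01 in PMG+AL medium with 23 nL pinned compound. After 24 h at 30 °C and 99% humidity, viability was read by BacTiter-Glo luminescence.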
MARV entry inh: blocks Marburg virus binding to or entry into cells; Marburg virus pseudotyped entry inhibition, cell reporter; control for the full effect not named in the record; about a third of the inactives were read at about 46 µM; Potency, µM (top dose mostly 37.8 µM), for inactives: at the top dose activity change, negative = inhibition, most hits filed as inhibitors; 1.8% of 300,000 active; active = well fitted inhibition curve with a large enough effect; inconclusive = small, poorly fitted or top-dose-only effect, or effect the other way; inactive = flat fitted curve, though single readings scatter; tested in HEK293 cells; about a fifth of its hits are not listed in these tables; also: % is scaled to controls: 0 for no effect and ±100 for the full control effect; luciferase read-out
NS1 inh: influenza NS1 inhibition; S. cerevisiae slowed by influenza A NS1, growth recovery by OD600; Potency, µM (highest dose often 46.1 µM), for inactives: at the highest dose activity, positive = more growth; 0.4% of 270,000 active; AID 2326; active means well fitted rising curve with a large enough effect; inconclusive means small, poorly fitted or top-dose-only effect; inactive means no such curve, though single readings can be large or run the other way; also: nearly all actives have a fitted effect of over 50% in size
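A cell-based growth assay was used: compounds that relieve NS1-induced slow growth of budding yeast raise OD600. Assay medium was yeast nitrogen base with ammonium sulphate and -URA supplement, pH 6.0, with 2% galactose.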
Cruzain inh Det: inhibitors of Trypanosoma cruzi cruzain with detergent; P25779; purified cruzain, Z-FR-AMC fluorescence, 0.01% Triton; Potency, µM, for inactives: max response, negative = inhibition, actives largely listed as inhibitors; 0.43% of 200,000 active;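 also: plate controls were neutral wells for no effect and buffer without enzyme for full effect; nearly all actives have a fitted effect of over 40% in size; top concentration of the series not given in the record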
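Cruzain (1.5 nM) preincubated 15 min at RT with compound in 100 mM sodium acetate pH 5.5, 5 mM DTT, 0.01% Triton X-100. Reaction started with 2 uM Z-FR-AMC; AMC fluorescence (ex 360/em 450 nm) change over 60 s gave rate.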
SARS PLP yeast: inhibitors of SARS-CoV papain-like protease in yeast. S. cerevisiae expressing SARS-CoV PLpro, growth rescue; control for the full effect not named in the record. 0.19% of 330,000 active. Potency, µM (series often up to 32.9 µM), for the others: at the top dose activity, positive = growth rescue. AID 485353; active means well fitted rising curve with a large enough effect; inconclusive means small, poorly fitted or top-dose-only effect; inactive means no such curve, though single readings can be large or run the other way; also: 0% is about no effect; nearly all actives have a fitted effect of over 55% in size; growth read by luminescence after 48 h
* marks the source's active call; other numbers are inactive results; ? = inconclusive; · = not tested or not shown; [ ] = remark or other dose. Unless noted, calls follow the shape of the dose curve; as a rule, active = well fitted curve in the direction sought with a large enough effect; inconclusive = small, poorly fitted or top-dose-only effect, or another doubt; inactive = no such curve, though single readings can be large; an effect the other way counts as inactive or inconclusive. Potency is read from the fitted curve at half-maximal effect. An unsorted share of the library. About 4.7% of those tested had a hit in this group.

item | SMILES | StopGo reporter | LASV entry inh | Cruzain noTriton | RE007 growth inh
1 | CCOc1ccc(NC(=O)C(c2ccccn2)N(C(=O)CCl)c2ccc(F)cc2)cc1 (stereo unspecified) | -1% | 25% | 0% | -8%
2 | Cc1[nH]c2ccccc2c1/C=N/Nc1nc(N2CCCCC2)nc(N2CCCCC2)n1 | -17% | -1% | 21% | 0%
3 | O=C(c1cccnc1)N(Cc1ccccc1)C1(C(=O)Nc2ccccc2)CCCCC1 | -17% | 11% | -2% | 3%
4 | O=C(Cn1c(=O)n(-c2ccccc2)c(=O)c2ccc(C(=O)NCc3ccc4c(c3)OCO4)cc21)Nc1ccc(F)c(Cl)c1 | 75%[activator] | -14%[46.1 µM] | -13% | ·
5 | O=C(Nc1ccc(N2CCN(C(=O)c3cccs3)CC2)cc1)c1ccccc1Cl | -3% | ? | · | -8%
6 | COc1ccc(C(C(=O)OC(C)CN(C)C)c2ccccc2)cc1 (stereo unspecified) | -13% | -2% | 1% | 2%
7 | COc1ccccc1N(Cc1cc2ccc(C)cc2[nH]c1=O)C(C)=O | -24% | · | · | 17%
8 | Cc1ccc(/C=C2/NC(=O)[C@H](C)NC2=O)cc1 | 9% | · | · | 1%
9 | Cc1ccc(NC(=O)c2cc(S(=O)(=O)N3CCC4(CC3)OCCO4)ccc2F)cc1Cl | -12% | -30%[46.1 µM] | ? | ·
10 | COc1cc(C2(c3ccc(O)c(OC)c3)C(=O)Nc3c(C)cc(Br)cc32)ccc1O | -35% | ? | · | 12%
11 | N#Cc1cccnc1Nc1ccc(Cl)cc1 | -6% | 1% | · | -21%
12 | CN1CCN(/C(=N\S(=O)(=O)c2ccc(F)cc2)c2ccccc2)CC1 | -11% | 8% | 0% | 18%

item | MARV entry inh | NS1 inh | Cruzain inh Det | SARS PLP yeast
1 | -12% | 16% | -1.2% | 8%
2 | -9% | 28% | -15% | -12%
3 | -8% | 2% | 0.1% | -2%
4 | ? | · | -2.2% | ·
5 | ? | 9% | · | 0%
6 | 11% | -2% | 5.8% | 7%
7 | · | 13% | · | -1%
8 | · | -1% | · | 3%
9 | · | · | -0.4% | ·
10 | ? | · | · | ·
11 | 26%[46.1 µM] | -4% | · | -1%
12 | -11% | 2% | 0.7% | ·

Additional entries
item | SMILES | StopGo reporter | LASV entry inh | Cruzain noTriton | RE007 growth inh
13 | Cc1ccc(CNC(=O)CCS(=O)(=O)c2ccc(Br)cc2)cc1 | 1% | 11%[46.1 µM] | · | 12%
14 | CCO[C@H]1OC(C(=O)NCc2nc3ccccc3[nH]2)=C[C@@H](C2CC2)[C@@H]1CCCO | -21% | · | · | -6%
15 | Cc1ccc(-c2cc(C(=O)Nc3cc(C)ccc3O)no2)cc1 | 13% | ? | · | ?
16 | CCOc1ccccc1C(=O)Nc1ccc2nc3c(c(Nc4ccc(OC)c(OC)c4)c2c1)CCCC3 | ? | 10µM* | 0% | ·
17 | COc1ccc(C(=O)CSc2cc(C)nc(SCC(=O)c3ccc(C)cc3)n2)cc1 | -22% | -22% | 5% | 11%
18 | Cn1cc(CCNC(=O)c2ccc3nc(Cc4ccccc4F)oc3c2)cn1 | 19% | -28%[46.1 µM] | · | -3%
19 | CCN1C(=O)c2cccc3c(Cl)ccc(c23)C1=O | -21% | 16% | · | -2%
20 | O=C(Cn1cc([N+](=O)[O-])cn1)Nc1ccn(Cc2c(F)c(F)c(F)c(F)c2F)n1 | ? | -28% | 11% | -2%
21 | CCCCC(=O)N1CCN(c2nc(-c3ccc(F)cc3)cs2)CC1 | ? | 3% | · | -20%
22 | CC(=O)Nc1nc(NC(=O)C(Cl)(Cl)Cl)n(-c2ccccc2)n1 | 6% | 2% | · | -9%
23 | COc1ccc2nc(C)cc(Sc3nc4ccccc4s3)c2c1 | 16µM* | 16µM* | · | 2%
24 | COc1cc(OC)c(OC)cc1CNc1nnnn1C | -6% | 20%[46.1 µM] | · | 10%

item | MARV entry inh | NS1 inh | Cruzain inh Det | SARS PLP yeast
13 | -5%[46.1 µM] | · | · | 0%
14 | · | 2% | · | 0%
15 | ? | -1% | · | ?
16 | ? | · | -4.5% | ·
17 | ? | -5% | -11% | -11%
18 | ? | -18% | · | -3%
19 | -26% | 3% | · | 13%
20 | 17% | 4% | 0.1% | 12%
21 | 3% | ? | · | 0%
22 | 8% | 0% | · | 0%
23 | ? | -50% | · | -6%
24 | 4%[46.1 µM] | -2% | · | -1%

Part of the list above with just Cruzain noTriton, RE007 growth inh and LASV entry inh.
entry	structure	Cruzain noTriton	RE007 growth inh	LASV entry inh
23	COc1ccc2nc(C)cc(Sc3nc4ccccc4s3)c2c1	·	2%	16µM*
24	COc1cc(OC)c(OC)cc1CNc1nnnn1C	·	10%	20%[46.1 µM]

Following part:
item | SMILES | StopGo reporter | LASV entry inh | Cruzain noTriton | RE007 growth inh
25 | CCc1ccc(-c2ccc3nnc(SC)n3n2)cc1 | 40%[activator] | · | · | 21%
26 | CCOc1cccc(NC(=O)C2CC(=O)NC(=Nc3ccccc3)S2)c1 (stereo unspecified) | -27% | ? | -6% | 4%
27 | O=C(c1ccncc1)N1N=C(c2ccc(Br)cc2)CC1c1ccccc1O (stereo unspecified) | ? | · | · | 12%
28 | COC(=O)C1=C(N)N(c2ccccc2F)C2=C(C(=O)CC(C)(C)C2)C1c1ccc(OC)c(OC)c1 (stereo unspecified) | -2% | -13% | ? | 10%
29 | COc1ccc(-c2cc(=O)oc3cc(OCC(C)=O)ccc23)cc1 | -18% | ? | -7% | 3%
30 | CN1CCN(C(=O)c2cc([N+](=O)[O-])ccc2Cl)CC1 | -10% | 16%[46.1 µM] | · | 0%
31 | C=CCNC(=O)c1ccccc1NC(=O)COc1ccccc1 | -22% | 0% | · | 0%
32 | c1coc(-c2nc3nc4ccccc4n3nc2-c2ccco2)c1 | 3% | 4% | 6% | 3%
33 | COC(=O)CCc1sc(Nc2ccccc2)nc1-c1ccc(OC)cc1 | 39%[activator] | 8% | -3% | -6%
34 | Cc1ccc(/C(N)=N/OC(=O)c2ccc3ccccc3c2)cc1 | 37%[activator] | -11%[46.1 µM] | · | -8%
35 | COc1ccc(N2CCN(CC(=O)NC(=O)NCc3ccccc3)CC2)cc1 | -20% | -8% | · | 0%
36 | C/C=C/c1ccccc1OCc1ccc(C(=O)OC)o1 | 9% | -2% | -3% | -24%

item | MARV entry inh | NS1 inh | Cruzain inh Det | SARS PLP yeast
25 | · | -5% | · | -13%
26 | ? | -2%[9.22 µM] | 3.8% | -3%
27 | ? | -7% | · | -7%
28 | ? | -37% | -4.6% | 14%
29 | ? | -5% | -5.5% | -24%
30 | 1%[46.1 µM] | 15% | · | 0%
31 | 17% | -1% | · | 0%
32 | -9% | -14% | 0.7% | ·
33 | 1% | -17% | -11% | -6%
34 | ? | -32% | · | -14%
35 | 12% | · | · | 2%
36 | ? | -72% | -2.0% | -7%

Continuation.
item | SMILES | StopGo reporter | LASV entry inh | Cruzain noTriton | RE007 growth inh
37 | Cn1c(-c2ccccc2)c(CCO)c2ccccc21 | -16% | 3% | 9% | ?
38 | CC1CC(C)(C)N(C(=O)CSc2ccc(-c3ccc(F)cc3)nn2)c2ccccc21 (stereo unspecified) | · | -14% | -5% | 11%
39 | COc1ccc(-c2cc(C)no2)cc1S(=O)(=O)NC1CCC(C)CC1 (stereo unspecified) | 45%[activator] | -18%[46.1 µM] | -6% | ·
40 | CN1CCN(CC(=O)O)CC1 | -3% | 15% | 0% | 1%
41 | Cc1ccccc1CS(=O)(=O)Cc1ccc(C(=O)NCCCN2CC(C)CC(C)C2)o1 (stereo unspecified) | 19% | 1%[46.1 µM] | · | -4%
42 | CCn1nnc(-c2ccccc2NS(=O)(=O)c2ccc(S(=O)(=O)N(C)C3CCCCC3)cc2)n1 | 17% | ? | -25% | 2%
43 | Cc1ccc(CNC(=O)Cn2ncc3c(C)n(Cc4ccc(Cl)cc4)c(C)c3c2=O)cc1 | -19% | 19%[46.1 µM] | -6% | ·
44 | N/C(=N\[N+](=O)[O-])N1CCN(C(=O)OC2CCCC2)CC1 | -13% | · | · | 12%
45 | CCN(CC)C(=O)Cc1c(OC)ccc2cc(Br)ccc12 | -16% | · | · | 0%
46 | CC(=O)Nc1ccc(C(=O)NC2CCCC2)cc1 | -2% | -26% | 2% | -3%
47 | O=C(Nc1nnc(-c2ccccc2)o1)c1cccc(S(=O)(=O)N2CCOCC2)c1 | 98%[activator] | ? | · | 12%
48 | O=C(CCS(=O)(=O)c1ccc(Cl)cc1)Nc1ccccc1Br | -4% | 17% | · | -10%

item | MARV entry inh | NS1 inh | Cruzain inh Det | SARS PLP yeast
37 | ? | -39% | -17% | 1%
38 | ? | 18% | -2.5% | -7%
39 | · | · | -2.8% | ·
40 | 3% | 3% | -2.8% | 2%
41 | ? | · | · | -7%
42 | ? | 20% | 0.9% | ?
43 | 9%[46.1 µM] | · | 0.5% | ·
44 | · | 3% | · | 2%
45 | · | -8% | · | -1%
46 | 2%[46.1 µM] | -11% | 2.5% | -3%
47 | 13µM* | · | · | 1%
48 | -5%[46.1 µM] | 1% | · | -1%

Record cards (already shown). Order of screens: StopGo reporter, LASV entry inh, Cruzain noTriton, RE007 growth inh, MARV entry inh, NS1 inh, Cruzain inh Det, SARS PLP yeast
`C/C=C/c1ccccc1OCc1ccc(C(=O)OC)o1` in the list: 9%, -2%, -3%, -24%, ?, -72%, -2.0%, -7%
`C=CCNC(=O)c1ccccc1NC(=O)COc1ccccc1` in the list: -22%, 0%, ·, 0%, 17%, -1%, ·, 0%
`c1coc(-c2nc3nc4ccccc4n3nc2-c2ccco2)c1` in the list: 3%, 4%, 6%, 3%, -9%, -14%, 0.7%, ·
